High-throughput results: PubChem BioAssay, National Center for Advancing Translational Sciences (NCATS)
RE007 growth inh: less growth of the S. pombe RE007 Vpr strain | S. pombe RE007 Vpr strain, BacTiter-Glo ATP luminescence, 24 h; control for the full effect not named in the record | Potency, µM (series often up to 92.2 µM), for inactives: at the highest dose activity change, negative = less growth | actives 0.21% (n = 360,000) | AID 651644; active = well fitted falling curve with a large enough effect; inconclusive = small, poorly fitted or top-dose-only effect; inactive = no such curve, though single readings can be large or run the other way;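 note: % is set by controls: 0 for no effect and ±100 for the full control effect; nearly all actives have a fitted effect of over 50% in size; the assay follows cell death caused by Vpr and the record does not say whether a fall means rescue or toxicity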
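Fission yeast strain RE007, carrying one chromosomally integrated HIV-1 vpr copy, was seeded at OD 0.01 in PMG+AL medium with 23 nL pinned compound. After 24 h at 30 °C and 99% humidity, viability was read by BacTiter-Glo luminescence.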
Marburg entry inh: blocks Marburg virus binding to or entry into cells. Marburg virus pseudotyped entry inhibition, cell reporter; control for the full effect not named in the record; about a third of the inactives were read at about 46 µM. Potency, µM (series often up to 37.8 µM), for the others: at the top dose activity change, negative = inhibition, actives largely listed as inhibitors. actives 1.8% (n = 300,000); active = well fitted inhibition curve with a large enough effect; inconclusive = small, poorly fitted or top-dose-only effect, or effect the other way; inactive = flat fitted curve, though single readings scatter; tested in HEK293 cells; about a fifth of its hits are not listed in these tables; note: % is set by controls: 0 for no effect and ±100 for the full control effect; luciferase read-out
Cruzain inh noDet: cruzain (T. cruzi) inhibition without detergent; P25779; purified cruzain, Z-FR-AMC fluorescence, no detergent; Potency, µM, inactives show max response, negative = inhibition, most hits filed as inhibitors; actives 2.3% (n = 200,000);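 note: plate controls were enzyme without inhibitor for no effect and buffer without enzyme for full effect; nearly all actives have a fitted effect of over 40% in size; top concentration of the series not given in the record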
Target sequence (P25779 123-467 limits assumed): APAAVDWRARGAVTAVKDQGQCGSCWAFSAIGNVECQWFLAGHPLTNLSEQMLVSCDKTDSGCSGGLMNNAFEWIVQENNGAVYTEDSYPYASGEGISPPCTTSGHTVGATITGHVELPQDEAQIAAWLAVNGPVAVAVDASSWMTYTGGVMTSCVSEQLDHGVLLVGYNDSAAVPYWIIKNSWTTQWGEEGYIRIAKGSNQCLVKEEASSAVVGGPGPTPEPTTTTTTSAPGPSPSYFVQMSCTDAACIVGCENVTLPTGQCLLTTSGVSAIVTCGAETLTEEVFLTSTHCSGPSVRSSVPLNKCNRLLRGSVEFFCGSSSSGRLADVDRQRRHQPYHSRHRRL
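Detergent-free condition (0.00005% Triton X-100) in acetate buffer pH 5.5 with DTT. 1.5 nM enzyme and compound were pre-mixed 15 min, then 2 uM Z-FR-AMC substrate added; reaction progress from fluorescence change between first and third reads (60 s).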
Lassa entry inh: inhibitors of Lassa virus binding or cell entry; Lassa virus pseudotype entry inhibition, cell reporter; control for the full effect not named in the record; Potency, µM (highest dose often 37.9 µM), without a hit: at the top dose activity change, negative = inhibition, hits mostly inhibitors; actives 1.2% (n = 300,000); active means well fitted inhibition curve with a large enough effect; inconclusive means small, poorly fitted or top-dose-only effect, or effect the other way; inactive means flat fitted curve, though single readings scatter; tested in HEK293 cells; note: % is set by controls: 0 for no effect and ±100 for the full control effect; nearly all actives have a fitted effect of over 50% in size; luciferase read-out
NS1 inh: blocks influenza NS1 protein function; S. cerevisiae slowed by influenza A NS1, growth recovery by OD600; Potency, µM (top dose mostly 46.1 µM), without a hit: at the highest dose activity, positive = more growth; actives 0.4% (n = 270,000); AID 2326; active means well fitted rising curve with a large enough effect; inconclusive means small, poorly fitted or top-dose-only effect; inactive means no such curve, though single readings can be large or run the other way; note: nearly all actives have a fitted effect of over 50% in size
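A cell-based growth assay was used: compounds that relieve NS1-induced slow growth of budding yeast raise OD600. Assay medium was yeast nitrogen base with ammonium sulphate and -URA supplement, pH 6.0, with 2% galactose.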
SARS PLP yeast: inhibitors of SARS-CoV papain-like protease in yeast; S. cerevisiae expressing SARS-CoV PLpro, growth rescue; control for the full effect not named in the record; Potency, µM (titrated, usually from 32.9 µM), for inactives: top-dose activity, positive = growth rescue; actives 0.19% (n = 330,000); AID 485353; active means well fitted rising curve with a large enough effect; inconclusive means small, poorly fitted or top-dose-only effect; inactive means no such curve, though single readings can be large or run the other way; note: 0% is about no effect; nearly all actives have a fitted effect of over 55% in size; growth read by luminescence after 48 h
Cruzain Triton: inhibitors of Trypanosoma cruzi cruzain with detergent; purified cruzain, Z-FR-AMC fluorescence, 0.01% Triton; P25779; actives 0.43% (n = 200,000); Potency, µM, for inactives: max response, negative = inhibition, actives largely listed as inhibitors;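 note: plate controls were neutral wells for no effect and buffer without enzyme for full effect; nearly all actives have a fitted effect of over 40% in size; top concentration of the series not given in the record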
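Read-out: AMC fluorescence (360 nm excitation, 450 nm emission), four reads over 2 min, first-to-third difference used. Conditions: cruzain 1.5 nM, Z-FR-AMC 2 uM, pH 5.5 acetate, 5 mM DTT, 0.01% Triton X-100.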
StopGo reporter: FMDV 2A StopGo reporter, luciferase signal; human cells with a luciferase reporter of 2A StopGo recoding; control for the full effect not named in the record; Potency, µM (titrated, usually from 57.9 µM), for inactives: at the top dose signal change, negative = less light; actives 1.2% (n = 410,000); active = well fitted falling curve with a large enough effect; inconclusive = small, poorly fitted or top-dose-only effect; inactive = no such curve, though single readings can be large or run the other way; tested in HEK293T cells; note: % is set by controls: 0 for no effect and ±100 for the full control effect; nearly all actives have a fitted effect of over 45% in size; luciferase light after 4 h
The depositor's hits bear a star; ? = inconclusive; nt = not tested or not shown; & = joins results of further samples; [ ] = remark or other dose. Unless noted, calls come from the whole dose curve; as a rule, active = well fitted curve in the direction sought with a large enough effect; inconclusive = small, poorly fitted or top-dose-only effect, or another doubt; inactive = no such curve, though single readings can be large; an effect the other way counts as inactive or inconclusive. Potency is the fitted concentration of half-maximal effect. Random draw from the library, and some 4.8% of all compounds hit somewhere here.

SMILES	RE007 growth inh	Marburg entry inh	Cruzain inh noDet	Lassa entry inh	NS1 inh	SARS PLP yeast	Cruzain Triton	StopGo reporter
O=C(NCc1ccc(Cl)cc1)C1CCN(C(=O)c2cnn(-c3ccccc3)c2-n2cccc2)CC1	nt	?	?	?	nt	nt	-7.0%	?
O=C(NC1CCS(=O)(=O)C1)c1c(NC(=O)C2COc3ccccc3O2)sc2c1CCCC2 (stereo not given)	1%	-1%&-23%	-8%	-10%	15%	-5%	-3.8%	-8%
Cc1ccc(-c2ccc(NC(=O)C3C4C=CC(C4)C3C(=O)O)cc2)o1 (stereo not given)	?	16%	-11%	?	-14%	8%	-0.5%	58%[activator]
C=CCOC(=O)CN1C(=O)c2ccccc2C1=O	18%	35%	-2%	18%	-5%	8%	3.2%	14%
O=C(N/N=C/c1ccc([N+](=O)[O-])o1)c1ccc2c(c1)OCO2	10%	nt	nt	nt	17%	-8%	nt	-25%
COCCNC(=O)CN(c1ccccc1OC)S(C)(=O)=O	0%	-9%	5%	-17%	4%	3%	1.7%	-11%
Clc1ccc(/C(Cc2nc3ccccc3[nH]2)=N\Nc2ccccc2)cc1	9%	?	nt	?	-3%	-7%	nt	-23%
Cc1ccc(NC(=O)c2sc(N)nc2-c2ccc([N+](=O)[O-])cc2)cc1C	5%	?	nt	-11%	-3%	1%	nt	-10%
O=C(NC12CC3CC(CC(C3)C1)C2)N1CCN(C(=O)c2ccco2)CC1	7%	28%[46.1 µM]	nt	?	nt	-2%	nt	4%
CCOC(=O)c1c(-c2ccccc2)csc1/N=C/C1C(=O)CCCC1=O	?	?	14%	?	5%	16%	-4.4%	-14%
CCOC(=O)C(O)(c1ccc(NC(=O)NC)cc1)C(F)(F)F (stereo not given)	-11%	-8%[46.1 µM]	nt	8%	0%	-1%	nt	0%
CC(=O)C1C(=O)NC23CCCCC2C1c1ccccc1O3 (stereo not given)	7%	12%	-6%	11%	-11%	1%	-1.0%	nt
CCCC(C)NCC(=O)Nc1ccccc1-c1ccccc1 (stereo not given)	-18%[3.69 µM]	-19%	-9%	4%	4%	-3%	1.6%	-21%
O=C(COC(=O)c1cccc(-n2cnnn2)c1)c1ccccc1	-9%	?	nt	15%[46.1 µM]	-16%	-6%	nt	0%
O=C(Oc1ccc([N+](=O)[O-])cc1)c1cc(-c2ccccc2)nc2ccccc12	-8%	1%	?	5%	-6%	0%	-4.6%	20µM*
O=C1N(O)C2(C=CCCC2)/C(=N\O)C12CCCCC2 (stereo not given)	-12%	0%	-7%	-1%	8%	-3%	-2.3%	2%
CC(C)C[C@H](NC(=O)c1[nH]cnc1C(=O)Nc1ccc(CNC(=O)OC(C)(C)C)cc1)C(=O)OC(C)(C)C	2%	nt	nt	nt	?	3%	nt	?
Cn1c2ccccc2n2c(=O)c(=O)n(CC(=O)c3ccc(F)cc3)nc12	13%	13%	-5%	-10%	9%	0%	-3.7%	nt
COc1ccc(N2CCN(C(=O)c3cccc(Br)c3)CC2)c([N+](=O)[O-])c1	-6%	-22%	nt	-2%	-8%	-1%	nt	-20%
CN(CC(=O)Nc1ccc(F)cc1)C(=O)C1Cc2ccccc2CN1S(C)(=O)=O (stereo not given)	-3%	-15%	nt	-2%	nt	-9%	nt	18%
CC(=O)c1cccc(CN2CCN(C(C)C)C(CCO)C2)c1 (stereo not given)	-10%	?	nt	2%	4%	1%	nt	15%
O=C(Cn1c(=O)oc2cc(S(=O)(=O)N3CCCC3)ccc21)Nc1ccc(OC(F)(F)F)cc1	nt	nt	?	16%[46.1 µM]	nt	nt	-2.6%	-12%
O=C(CSc1n[nH]c(-c2cccnc2)n1)Nc1ccccc1	3%	-2%	14%	-2%	-2%	26%	0.3%	-14%
Cc1ccc(-c2n[nH]c(=S)n2/N=C/c2c(C)[nH]n(-c3ccccc3)c2=O)cc1	-14%	?	nt	7%[46.1 µM]	nt	-2%	nt	?
COc1ccc(N2CCN(C(=O)c3cccc(NC(=O)c4ccco4)c3)CC2)cc1	-7%	-11%	nt	?	-2%	-1%	nt	18%

A different layout for some results above:
Value order: RE007 growth inh	Marburg entry inh	Cruzain inh noDet	Lassa entry inh	NS1 inh	SARS PLP yeast	Cruzain Triton	StopGo reporter
O=C(Oc1ccc([N+](=O)[O-])cc1)c1cc(-c2ccccc2)nc2ccccc12
    -8%	1%	?	5%	-6%	0%	-4.6%	20µM*
Cc1ccc(-c2n[nH]c(=S)n2/N=C/c2c(C)[nH]n(-c3ccccc3)c2=O)cc1
    -14%	?	nt	7%[46.1 µM]	nt	-2%	nt	?

The listing continues:
SMILES	RE007 growth inh	Marburg entry inh	Cruzain inh noDet	Lassa entry inh	NS1 inh	SARS PLP yeast	Cruzain Triton	StopGo reporter
O=P(CCNCc1ccco1)(c1ccccc1)c1ccccc1	1%	-18%	1%	7%	-2%	1%	3.4%	-24%
O=Cc1cn(CCOc2ccccc2)c2ccccc12	-13%	nt	nt	nt	?	-4%	nt	11%
CC(C)C(=O)Nc1nnc(CCc2nnc(NC(=O)C(C)C)s2)s1	15%	0%	5%	?	-6%	-2%	-0.4%	4%
Clc1ccc(NCc2nc3ccccc3n2CCOc2ccccc2)cc1	nt	25%[46.1 µM]	-7%	?	nt	nt	-7.0%	9%
CCOc1ccc(Nc2ncnc(N)n2)cc1	-1%	11%	-10%	19%	-9%	0%	-0.3%	nt
COc1ccc(CNCc2c(C(=O)N(C)C)nc3ccc(Cl)cn23)c(OC)c1	2%	nt	nt	nt	1%	0%	nt	-1%
CCCN(CCC)C(=O)Cn1c(=O)n(CCCCC(=O)NC2CCCC2)c(=O)c2ccccc21	-5%	17%	0%	0%	-3%	1%	6.1%	17%
Cc1occc1C(=O)NCc1ccco1	19%	?	-1%	5%	3%	-8%	-4.0%	8%
O=C(C[n+]1cc(-c2ccc(F)cc2)n2c1CCC2)N1c2ccccc2Sc2ccccc21	-4%	16%	-8%	10%	7%	-24%	-3.1%	8%
C=C(C)Cn1c(=O)c2c(nc3n2CCN3c2ccc(CC)cc2)n(C)c1=O	nt	nt	-8%	17%[46.1 µM]	nt	nt	0.5%	-22%
CCOc1cccc(C2c3[nH]c4ccccc4c3CCN2C(=O)CCC2CCCC2)c1 (stereo not given)	nt	nt	-5%	?	nt	nt	3.1%	15%
CN1C(=O)NC(c2ccc(Cl)cc2)C2=C1CC(C)(C)CC2=O (stereo not given)	-6%	17%	nt	1%	2%	0%	nt	-5%
COc1ccc(-c2csc(Cc3nnc(N4CCOCC4)n3-c3ccccc3)n2)cc1OC	2%	-21%	11%	3%	1%	-1%	-2.1%	4%
O=C(CCCC(=O)NN=Cc1ccc(Cl)cc1Cl)NN=Cc1ccc(Cl)cc1Cl	20%	?	nt	1%	nt	nt	nt	-23%
O=C(/C=C/c1ccccc1)NCCc1cnc[nH]1	-15%	nt	nt	nt	6%	2%	nt	5%
CCN(CC)C(CNS(=O)(=O)c1ccc(Cl)cc1)c1ccccc1 (stereo not given)	-7%	-22%[46.1 µM]	nt	?	nt	1%	nt	-1%
O=C(Nc1ccncc1)Nc1cccc(Cl)c1Cl	7%	nt	nt	nt	-9%	2%	nt	?
O=C(Cc1c(F)cccc1Cl)Nc1ccccc1C(=O)N1CCOCC1	0%	-11%	nt	3%	-1%	7%	nt	-9%
Cc1cccc(N2CCn3c2nc2c3c(=O)n(CCCc3ccccc3)c(=O)n2C)c1	nt	nt	13%	19%[46.1 µM]	nt	nt	-3.9%	-5%
Cc1ccccc1Nc1c([N+](=O)[O-])ccc2nonc12	1%	-3%[46.1 µM]	nt	15%[46.1 µM]	-3%	-4%	nt	-20%
CC12CCC(C)(c3nc4ccccc4nc31)C2(C)C	4%	3%[46.1 µM]	nt	8%	2%	1%	nt	-23%
COC(=O)Cc1csc(/N=C/c2c(O)n(-c3cccc(C(F)(F)F)c3)c(=O)c3ccccc23)n1	-15%	-8%[46.1 µM]	1%	9%&7%	13%	-3%	-5.1%	-3%
CN1CCN(CCCNC(=O)CN2C(=O)COc3ccccc32)CC1	-4%	23%[46.1 µM]	nt	7%	7%	2%	nt	-9%
CC(=O)Oc1c(C)c(OC(C)=O)c2c(c1C(C)=O)OC1CC(=O)C(C(C)=O)=C(O)C21C (stereo not given)	-11%	nt	nt	nt	-51%	-1%	nt	-7%
COC(=O)c1c(NC(=O)C2CC(=O)NN2Cc2ccccc2)sc(C)c1C (stereo not given)	23%	-19%	?	?	13%	-2%	-6.7%	0%

Carrying on.
SMILES	RE007 growth inh	Marburg entry inh	Cruzain inh noDet	Lassa entry inh	NS1 inh	SARS PLP yeast	Cruzain Triton	StopGo reporter
CC(=O)Nc1ccc(S(=O)(=O)N(C)CC(=O)N/N=C/c2ccncc2)cc1	-11%	0%[46.1 µM]	nt	1%	7%	3%	nt	-1%
NC(=O)NCCc1ccccc1	1%	nt	nt	nt	1%	4%	nt	-14%
O=C(CCc1ccc(Oc2cc([N+](=O)[O-])cc([N+](=O)[O-])c2)cc1)N1CCCCCC1	12%	?	-2%	-24%	-10%	-95%	-6.3%	?
CC1CN(C(=O)c2ccc(NS(=O)(=O)c3ccc(F)cc3)cc2)CC(C)O1 (stereo not given)	-4%	nt	nt	nt	2%	-5%	nt	-23%
Cc1cc(-c2ccccc2)nc(N(C)NC(=O)C2CC2)c1S(C)(=O)=O	0%	-20%[46.1 µM]	nt	-25%	nt	2%	nt	-3%
O=C(NC(=S)Nc1cc(S(=O)(=O)N2CCOCC2)ccc1N1CCOCC1)c1ccco1	-9%	-5%[46.1 µM]	nt	2%	-5%	-2%	nt	-8%

Individual results from the list.
RE007 growth inh result of O=C(CCc1ccc(Oc2cc([N+](=O)[O-])cc([N+](=O)[O-])c2)cc1)N1CCCCCC1 = 12%
Lassa entry inh result of Cc1cc(-c2ccccc2)nc(N(C)NC(=O)C2CC2)c1S(C)(=O)=O = -25%
Marburg entry inh result of O=C(NC(=S)Nc1cc(S(=O)(=O)N2CCOCC2)ccc1N1CCOCC1)c1ccco1 = -5%[46.1 µM]
